MrgX1 PAM: allosterically activates human MrgX1 receptor signaling; Q96LB2; MrgX1-HEK293, Fluo-4 calcium flux, FDSS; active compounds read high; B-score at 10 µM; 0.63% of 310,000 active; AID 588675;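 active = plate-corrected calcium response at least 3 library SD above typical, normal starting fluorescence, not activating the receptor alone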;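 also: compound read alongside a low EC10 to EC30 dose of BAM8-22 agonist; peak minus trough fluorescence over baseline measured at the second addition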
Target sequence (Q96LB2 whole entry, looked up): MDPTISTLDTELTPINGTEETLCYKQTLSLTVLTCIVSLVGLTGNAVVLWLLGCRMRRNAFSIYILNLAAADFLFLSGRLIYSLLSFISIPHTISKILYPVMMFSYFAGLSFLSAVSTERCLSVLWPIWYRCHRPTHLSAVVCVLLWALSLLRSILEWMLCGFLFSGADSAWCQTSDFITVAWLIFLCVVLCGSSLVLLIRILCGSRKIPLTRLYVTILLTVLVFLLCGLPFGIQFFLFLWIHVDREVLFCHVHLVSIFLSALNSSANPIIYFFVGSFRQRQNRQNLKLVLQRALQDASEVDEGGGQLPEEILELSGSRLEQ
TMEM16A inh: inhibitors of mouse TMEM16A calcium-activated chloride channel; Q8BHY3; HEK293 TMEM16A/YFP iodide influx fluorescence, ionomycin; normalized B-score (activity score, 25-100; higher = stronger inhibition) at 10 µM; 1.2% of 310,000 active;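 active = ratio plate-corrected score three or more library SD toward inhibition, starting fluorescence score within five deviations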;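 also: score derived from kinetic fluorescence span divided by baseline fluorescence per well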
MrgX1 antagonist: human MrgX1 receptor antagonism, primary screen; Q96LB2; MRGX1-HEK293 calcium flux, Fluo-4, BAM8-22 antagonism; active compounds read low; B-score at 10 µM; 1.3% of 310,000 active;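 active = calcium-response B-score plate-corrected more than 3 library SD below zero, starting fluorescence within 5 deviations, no agonist response on first addition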;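 also: peak minus trough fluorescence over baseline after final BAM8-22 challenge near maximal dose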
TMEM16A act: activates or potentiates the mouse TMEM16A chloride channel; Q8BHY3; HEK293 TMEM16A/YFP-H148Q/I152L, iodide quench fluorescence; active compounds read low; B-score at 10 µM; 0.3% of 340,000 active;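 active = fluorescence-ratio B-score plate-corrected deviation score at least 3 library SD below zero, with starting fluorescence score within 5 deviations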;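 also: channel opened by trigger with iodide after compound preincubation; score built on the fluorescence ratio of max minus min over baseline; more negative score means more quench and so TMEM16A activation or potentiation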
MrgX1 agonist: human MrgX1 receptor agonism, primary screen. Q96LB2. MrgX1-HEK293 cells, Fluo-4 calcium fluorescence, agonist mode; active compounds read high. B-score at 10 µM. 0.44% of 310,000 active;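 active = calcium response B-score plate-corrected fluorescence ratio at least 3 library SD, with starting fluorescence B-score inside 5 SD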
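Test system: HEK293 cells stably expressing human MrgX1 receptor; Input: fifteen thousand cells per well; Dosing: compound delivered in addition one of three; Schedule: overnight seeding, then 1 h dark dye loading; Technique: Fluo-4 NW calcium fluorescence; Measure: B-scored fluorescence response ratio; Controls: positive and negative controls per plate.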
TRPC6 inhibitor: mouse TRPC6 channel inhibition; 1.1% of 310,000 active; B-score at 10 µM; AID 2553; Q61143; HEK293-TRPC6, membrane potential dye, ACh-evoked depolarization; active compounds read low;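 active = B-score under library mean minus 3 SD, initial fluorescence not abnormally high, positive integrated signal ratio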;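 also: B-score derived from integrated fluorescence ratio over the kinetic read; more negative B-score means stronger inhibition of depolarization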
TRPC6 act: activates the mouse TRPC6 cation channel; HEK293-TRPC6 membrane potential dye fluorescence; active compounds read high; 0.13% of 310,000 active; B-score at 10 µM; Q61143;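 active = B-score of the integrated fluorescence ratio above library mean plus 3 SD, and starting fluorescence ratio within library mean plus 5 SD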;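 also: higher score means more depolarization so channel activation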
Calls only; i = inactive. Some of the compounds tested, so the mix of outcomes need not match the whole.

item	canonical_smiles	MrgX1 PAM	TMEM16A inh	MrgX1 antagonist	TMEM16A act	MrgX1 agonist	TRPC6 inhibitor	TRPC6 act
1	CN[C@H]1CC[C@@H](c2ccc(Cl)c(Cl)c2)c2ccccc21	i	i	i	i	i	i	i
2	CCCCNc1ccc(C(=O)O)cc1	i	i	i	i	i	i	i
3	CN1CCN(CC/C=C2/c3ccccc3Sc3ccc(S(=O)(=O)N(C)C)cc32)CC1	i	i	i	i	i	i	i
4	CN(C)CCCN1c2ccccc2CCc2ccccc21	i	i	i	i	i	i	i
5	COc1ccc(Cn2cc(C(=O)O)c(=O)c3ccccc32)cc1	i	i	i	i	i	i	i
6	Cc1ccc(/C=C/C(=O)c2ccccc2)cc1	i	i	i	i	i	i	i
7	COC(=O)[C@H]1[C@H]2C[C@H]3c4[nH]c5ccccc5c4CCN3C[C@@H]2CC[C@@H]1O	i	i	i	i	i	i	i
8	Cc1c(OCC(F)(F)F)ccnc1CS(=O)c1nc2ccccc2[nH]1 (centres undefined)	i	i	i	i	i	i	i
9	C[C@@H]1C[C@H]2[C@@H]3CCC4=CC(=O)C=C[C@]4(C)[C@@]3(F)[C@@H](O)C[C@]2(C)[C@@]1(O)C(=O)CO	i	i	i	i	i	i	i
10	CC1=C(C)C(=O)C(CCCCC#CCCCC#CCO)=C(C)C1=O	i	i	i	i	i	i	i
11	C[C@]12CCC(=O)C=C1CC[C@@H]1[C@@H]2C(=O)C[C@@]2(C)[C@H]1CC[C@]2(O)C(=O)CO	i	i	i	i	i	i	i
12	C[C@H](CS)C(=O)N1CCC[C@H]1C(=O)O	i	i	i	i	i	i	i

An excerpt from above in order of count of non-hydrogen atoms, largest number first:
item	canonical_smiles	MrgX1 PAM	TMEM16A inh	MrgX1 antagonist	TMEM16A act	MrgX1 agonist	TRPC6 inhibitor	TRPC6 act
8	Cc1c(OCC(F)(F)F)ccnc1CS(=O)c1nc2ccccc2[nH]1 (centres undefined)	i	i	i	i	i	i	i
5	COc1ccc(Cn2cc(C(=O)O)c(=O)c3ccccc32)cc1	i	i	i	i	i	i	i
4	CN(C)CCCN1c2ccccc2CCc2ccccc21	i	i	i	i	i	i	i

Entries from the list above that have a COOH group:
item	canonical_smiles	MrgX1 PAM	TMEM16A inh	MrgX1 antagonist	TMEM16A act	MrgX1 agonist	TRPC6 inhibitor	TRPC6 act
2	CCCCNc1ccc(C(=O)O)cc1	i	i	i	i	i	i	i
5	COc1ccc(Cn2cc(C(=O)O)c(=O)c3ccccc32)cc1	i	i	i	i	i	i	i
12	C[C@H](CS)C(=O)N1CCC[C@H]1C(=O)O	i	i	i	i	i	i	i

4 compounds picked at random from those above:
item	canonical_smiles	MrgX1 PAM	TMEM16A inh	MrgX1 antagonist	TMEM16A act	MrgX1 agonist	TRPC6 inhibitor	TRPC6 act
8	Cc1c(OCC(F)(F)F)ccnc1CS(=O)c1nc2ccccc2[nH]1 (centres undefined)	i	i	i	i	i	i	i
4	CN(C)CCCN1c2ccccc2CCc2ccccc21	i	i	i	i	i	i	i
2	CCCCNc1ccc(C(=O)O)cc1	i	i	i	i	i	i	i
7	COC(=O)[C@H]1[C@H]2C[C@H]3c4[nH]c5ccccc5c4CCN3C[C@@H]2CC[C@@H]1O	i	i	i	i	i	i	i

Compound activity as filed in PubChem.
